# B2AR ag: beta2AR agonists driving receptor internalization, primary screen, cell-based, FAP fluorogen, flow cytometry | Am2.2-beta2AR cells; reference of the scale not given here | response, % (test concentration not listed) | 340,000 compounds, 0.43% hits | AID 504454, 2011;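 active means response above a set limit, near 3 SD of response in nonfluorescent compounds, cut at about 42% in these data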;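 further: stock transfer was 100 nL into about 11 µL; a reference agonist was the positive control; negative values mostly stem from fluorescent compounds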
# HNF4A DNA FP: change in binding of human HNF4A to DNA, primary screen, biochemical, fluorescence polarization, FITC-DNA | 1 h | Hepatocyte nuclear factor 4-alpha (Homo sapiens), P41235 | AID 1224865, 2016 | 360,000 compounds, 0.3% hits | activity change, % at 10 µM; in the data active means activity change above about 30%, passing the limit was not always enough;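 further: controls were the assay level and a saturating level of protein; the project sought stronger binding though the title names inhibitors; some compounds called inactive have numbers as strong as hits; positive values seem to mean higher polarization but the record does not say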
# Vif A3G: inhibitors of Vif binding to APOBEC3G peptide, primary screen, biochemical, TR-FRET, GST-Vif 1-94, biotin-A3G peptide, dose response retest (AID 1117319); Virion infectivity factor (Human immunodeficiency virus type 1 group M subtype B (isolate …; 260,000 compounds, 0.57% hits; TR-FRET GST-Vif / biotin-A3G peptide binding; higher % means a stronger effect; test concentration not given here; strong numbers were not always called active; inhibition, %; hits with a dose series show IC50 in µM;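 active means above the screen mean plus three standard deviations and confirmed in dose response; inconclusive means results disagree or hit not tested in dose response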;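 further: Vif residues 1-94 fused to GST binding biotinylated APOBEC3G peptide 110-148; 0% = full assay without inhibitor and 100% = GST in place of GST-Vif; retest series ran down from 100 µM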
# UCH37 DUB inh: inhibitors of human UCH37 deubiquitinase, primary screen, biochemical, Ub-AMC cleavage, fluorescence. inhibition, % (test concentration not listed). purified proteasome/UCH37. Ubiquitin carboxyl-terminal hydrolase isozyme L5 (Homo sapiens), Q9Y5K5. 330,000 compounds, 0.33% hits;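 active means mean of two replicates above 20%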;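 further: 0% = compound-free wells with enzyme and 100% = wells lacking proteasome; stock transfer was 100 nL into about 20 µL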
#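 System: Proteasome-associated human UCH37 deubiquitinase; Input: 0.15 nM proteasome in added enzyme buffer; Also added: Ub-AMC substrate from 1 µM stock; Incubation: 30 min compound-proteasome preincubation then 25 min substrate reaction, room temperature; Detection: fluorescence, ex 355 nm, em 460 nm; Read-out: % inhibition of Ub-AMC cleavage fluorescence; Benchmarks: no-proteasome and no-compound wells.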
# Bfl-1 A1 inh: caspase 3/7 activation in MEF A1-2A-BIM cells, primary screen, A1 inhibitor project, cell-based, luminescence, HTS | caspase activation, % (test concentration not listed) | Caspase-Glo 3/7 luminescence, 3 h; percent of clofoctol response, vehicle zero | 330,000 compounds, 0.066% hits;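 active means over half of replicate activation scores above 10%, or exactly half above 10 with the replicate mean above 10; inconclusive means replicate mean below 10 yet half the replicates above 10; inactive means over half of replicates below 10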;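 further: wells of about 30 µL received 50 nL stock; many hits fall short of the cut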
# LANA-H2A inh: blockers of LANA interaction with H2A/H2B – biochemical, FP readout, HTS, primary screen | inhibition, % (concentration not given with the values) | 320,000 compounds, 0.6% hits | cell-free LANA-H2A/H2B peptide, fluorescence polarization | Protein LANA1 (Human herpesvirus 8 type P (isolate GK18)), Q9QR71; in the data active means inhibition mostly above about 10%, no sharp cut-off; inactive means mostly below about 6.7%;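 further: stock transfer was 7.5 nL into about 10 µL; 0% = median of vehicle wells and 100% = median of positive control wells; one replicate is shown; the record names a cut of 25% in any replicate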
# Target sequence (Q9QR71 whole entry, looked up): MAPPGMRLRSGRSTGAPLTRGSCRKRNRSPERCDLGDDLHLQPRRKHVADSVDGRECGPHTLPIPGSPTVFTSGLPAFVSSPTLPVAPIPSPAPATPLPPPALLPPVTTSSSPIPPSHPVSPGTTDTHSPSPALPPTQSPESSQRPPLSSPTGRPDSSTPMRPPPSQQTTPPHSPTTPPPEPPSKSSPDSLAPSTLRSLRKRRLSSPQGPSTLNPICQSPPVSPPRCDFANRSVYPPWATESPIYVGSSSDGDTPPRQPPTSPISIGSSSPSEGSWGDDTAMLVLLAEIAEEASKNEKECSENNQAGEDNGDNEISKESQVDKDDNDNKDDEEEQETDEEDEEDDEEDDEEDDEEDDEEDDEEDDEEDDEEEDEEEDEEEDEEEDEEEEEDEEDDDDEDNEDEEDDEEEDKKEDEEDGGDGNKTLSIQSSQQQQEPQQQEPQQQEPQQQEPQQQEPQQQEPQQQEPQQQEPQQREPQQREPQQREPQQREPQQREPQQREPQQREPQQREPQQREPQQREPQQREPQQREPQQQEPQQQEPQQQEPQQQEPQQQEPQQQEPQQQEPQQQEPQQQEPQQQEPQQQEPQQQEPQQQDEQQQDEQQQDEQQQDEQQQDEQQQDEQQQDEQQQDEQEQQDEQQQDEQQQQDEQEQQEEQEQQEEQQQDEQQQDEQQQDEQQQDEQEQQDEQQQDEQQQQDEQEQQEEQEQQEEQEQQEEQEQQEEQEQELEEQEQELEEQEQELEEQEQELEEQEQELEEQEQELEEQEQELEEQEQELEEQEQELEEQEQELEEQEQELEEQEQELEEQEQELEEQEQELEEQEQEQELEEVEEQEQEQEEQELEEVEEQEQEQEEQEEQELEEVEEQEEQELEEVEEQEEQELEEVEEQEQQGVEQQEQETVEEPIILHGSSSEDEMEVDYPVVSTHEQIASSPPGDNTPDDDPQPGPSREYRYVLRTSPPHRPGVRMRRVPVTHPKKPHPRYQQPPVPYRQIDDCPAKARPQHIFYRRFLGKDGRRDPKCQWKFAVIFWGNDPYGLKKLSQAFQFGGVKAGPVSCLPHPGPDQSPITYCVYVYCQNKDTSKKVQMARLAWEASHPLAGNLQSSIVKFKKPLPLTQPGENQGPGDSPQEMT
# E coli growth: E. coli growth inhibition, primary screen, OD600; OD600 absorbance (test concentration not listed); Escherichia coli growth, 23 h; active compounds read low; 330,000 compounds, 0.21% hits;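 active means OD600 absorbance below the run mean of sample wells minus 3.6 SD, in any replicate, cut at about 0.56 in these data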;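 further: stock transfer was 300 nL into about 60 µL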
# * marks the source's active call; other numbers are inactive results; i = inactive; ? = inconclusive; / = not tested or not shown; & = joins results of further samples.
SMILES	Bfl-1 A1 inh	B2AR ag	HNF4A DNA FP	UCH37 DUB inh	E coli growth	LANA-H2A inh	Vif A3G
CNC(=S)N/N=C/c1c(C)cccc1Cl	-0.3	-1	-2.6	/	/	4.5	/
CCn1nc(C)c(Br)c1-c1nc(CS(=O)(=O)c2ccc(F)cc2)no1	0.1	-1	-4.1	4.1	0.67	-3.1	-4%
O=C(O)CCC(=O)N1N=C(c2ccccc2)CC1c1ccc2nccnc2c1 (stereo unspecified)	-1.1	-6	-2.5	4.1	0.68	1.2	0%
COC(=O)c1cc(C(=O)OC)n(Cc2ccc(Br)cc2)n1	-0.6	8	0.4	2.5	0.68	-0.6	0%
O=C(Nc1cccc(-c2cn3cccnc3n2)c1)c1ccco1	0.5	-17	3.5	i	0.62	-3.8	-1%
N#C/C(=C/C=C/c1ccccc1)C(=O)Nc1ccccc1	1.2	11	0.4	4.0	0.74	-1.7	-8%
O=C(O)CCCCOn1ccnc1	-0.5	1	0.2	1.0	0.67	0.3	-3%
CCOc1ccccc1NC(=O)COc1ccc2c(c1)OCO2	0.0	-2	-0.9	-1.0	0.69	0.5	/
CSc1ccccc1NC(=O)c1ccc(N2CC3CC(C2)c2cccc(=O)n2C3)c(NC(=O)c2ccncc2)c1 (stereo unspecified)	0.1	-1	-1.1	4.1	0.74	3.5	/
CC(C)(C)SCCNC(=O)/C=C/c1cccc([N+](=O)[O-])c1	0.5	-8	0.0	-0.7	0.71	-3.4	6%
COCCn1nnnc1C(c1ccc2ncccc2c1)N1CCc2ccccc21 (stereo unspecified)	0.2	-6	-6.0	4.6	0.66	-1.5	15%
Cc1ccccc1C(=O)N/N=C1/SCC(=O)N1Cc1ccccc1	0.8	4	0.6	/	/	4.0	-3%
COC(=O)c1sccc1NC(=O)Nc1ccc(C(C)=O)cc1	-1.1	0	-0.3	-2.1	0.69	2.5	/
Cc1ccc(C)c(N2CCN(C(=O)COc3cc(=O)n(C)c4ccccc34)CC2)c1	0.3	1	0.1	3.9	0.69	-0.5	-1%&-3%
CCCCc1ccc(NC(=O)COc2ccc(C(=O)Nc3ccccc3C)cc2)cc1	0.6	/	/	6.6	0.75	5.5	-4%
CCC(C)(C(=O)NC1CCCC1)N(C)C(=O)c1ccccn1 (stereo unspecified)	0.9	1	-0.7	-0.8	0.64	-5.2	/
COc1ccccc1C(=O)n1nc(-c2cccnc2)nc1N	/	1	0.6	-1.0	0.71	/	-3%
CCN(CC)C(=O)C(=O)Nc1ccc(F)c(Cl)c1	-1.2	-1	-2.3	1.3	0.71	2.0	-6%
COCCN1CC(=O)N2C(c3cccc(OC)c3)c3[nH]c4ccccc4c3C[C@H]2C1=O (stereo partly specified)	0.6	-4	1.1	1.4	0.66	0.8	-5%
Cc1nnc(SCC(=O)NNC(=O)c2ccco2)n1-c1cccc(Cl)c1	-1.2	1	-0.3	1.6	0.68	-0.1	/
CSc1nc2c(C)c(C)c(C)c(C)c2[nH]1	0.6	-6	1.5	4.1	0.63	2.3	32%
CCCCc1ccc(NC2=NCC(=O)N2CCc2ccccc2)cc1	-0.1	1	-4.1	5.3	0.69	0.6	/
Cc1ccc(C(=O)c2cc(C)sc2N)cc1	0.2	-4	1.0	4.0	0.7	1.2	13%
CCCC(CCC)C(=O)NCCN1CCOCC1	0.3	-14	-0.5	-0.3	0.79	0.7	1%
COc1cc(/C=N/NC(=O)C(=O)NCC2CCCO2)ccc1OCC(=O)N1CCOCC1 (stereo unspecified)	0.3	0	-1.5	/	/	0.0	-8%
CC(C)OC(=O)C(C#N)c1nc2ccccc2nc1N1CCN(Cc2ccccc2)CC1 (stereo unspecified)	-0.1	-6	-8.2	-15	0.84	1.5	30%
O=C(Nc1ccccc1-c1nc2ccccc2[nH]1)c1ccc(S(=O)(=O)N2CCCCC2)cc1	/	11	-1.2	-14	0.77	/	3%&9%
O=C(CN(c1ccc(Cl)cc1)S(=O)(=O)c1ccccc1)N1CCN(c2ccccc2)CC1	0.3	0	1.4	5.4	0.74	-0.3	0%
O=S(=O)(Nc1cccnc1)c1cccc(Cl)c1	-0.9	-4	0.7	0.8	0.7	3.3	2%
Cc1nn(S(=O)(=O)c2ccccc2)c(C)c1Sc1ccc([N+](=O)[O-])cc1	0.5	7	-1.6	1.2	0.68	8.1	1%
Cc1cc(N(C)NC(=S)Nc2ccccc2)nc(C)n1	0.2	-1	-0.1	0.0	0.67	4.1	-4%
CCOc1ccccc1NC(=O)CCNS(=O)(=O)c1cccc2nonc12	-0.2	3	0.2	4.1	0.69	12	-8%
CN(C(=O)c1ccc(NC(=O)Cc2cccc(NC(=O)C3CCN(C(=O)C4CCCC4)CC3)c2)cc1)C1CCCC1	-3.7	47*	-8.4	22*	0.67	2.4	/
COCCN=C1Sc2nc3ccc(C)cc3cc2CN1Cc1cccs1	-0.4	-3	5.4	1.2	0.63	2.3	-9%
Cc1coc(C)c1C(=O)Nc1ccc2ccccc2c1	/	-6	-0.1	2.9	0.69	/	/
Cc1ccc(S(=O)(=O)N2CCC(C(=O)OCC(=O)NC3(C#N)CCCCC3)CC2)cc1C	0.7	5	2.6	0.1	0.69	0.7	3%
COc1ccc(Nc2ncnc3sc(C)cc23)c(OC)c1	-2.0	1	1.6	2.1	0.65	-7.0	-1%
O=C(C1CCN(c2ncnc3c2sc2cccc(F)c23)CC1)N1CCCC1	0.0	/	/	-9.7	0.69	3.2	-8%
O=C(CSc1ccc2nnc(-c3ccccn3)n2n1)Nc1cccc(F)c1	-1.2	-9	3.2	-0.7	0.66	-6.4	-5%
O=C(O)/C=C/c1nc(-c2ccccc2)n2ccccc12	0.3	0	-3.9	i	0.69	1.3	?
Cc1ccc2c(c1)Oc1ccc(NC(=O)CCl)cc1C(=O)N2	1.1	17	-1.4	2.3	0.69	5.0	/
O=C(COC(=O)CNC(=O)c1ccco1)Nc1ncc(Cl)cc1Cl	-0.6	4	-6.5	-2.3	0.69	4.1	20%
Clc1ccc2c(c1)[C@H]1OCC[C@H]1[C@@H](c1ccco1)N2	1.1	-8	-1.1	-142	0.75	-1.6	?
COc1ccccc1C(=O)COC(=O)c1cccc(-n2cnnn2)c1	0.5	9	-2.6	-0.9	0.71	-0.4	-11%
O=C(NC(=S)Nc1ccccc1Br)C1CCCC1	0.1	-2	-0.7	6.9	0.71	-2.5	-5%
CC1CCN(C(=O)CSc2nnc(Cc3cc(=O)[nH]c(=O)[nH]3)n2-c2ccc(Cl)cc2)CC1	1.2	-2	0.3	5.5	0.73	2.9	5%&-8%
CCNC(=O)CN(CCc1ccccc1)S(C)(=O)=O	0.9	-3	-3.6	1.7	0.72	1.2	-4%
CC(=O)N1CCN(S(=O)(=O)c2cccc(C(=O)Nc3cc(C(F)(F)F)ccc3N3CCOCC3)c2)CC1	1.4	-5	3.1	4.5	0.68	-0.4	/
CC(C)(C)OC(=O)N(CCc1ccccc1)Cc1ccc(OCc2cccc(NC(=O)/C=C/c3ccccc3)c2)cc1	/	-10	-0.9	/	/	/	3%
O=C1[C@H]2[C@@H](C(=O)N1c1cccc3ccccc13)C1(C(=O)c3ccccc3C1=O)N1CCC[C@@H]21	-0.1	9	2.8	3.1	0.72	0.8	5%

# (more compounds)
SMILES	Bfl-1 A1 inh	B2AR ag	HNF4A DNA FP	UCH37 DUB inh	E coli growth	LANA-H2A inh	Vif A3G
CCNC(=O)COC(=O)CCC(=O)c1ccc(F)cc1	0.2	-1	0.4	3.5	0.69	2.0	9%
CC(=O)Nc1ccc(NC(=O)CSc2nnc(NC(=O)C3CC(=O)N(c4ccc(F)cc4)C3)s2)cc1 (stereo unspecified)	0.3	2	1.6	3.2	0.71	-5.5	-1%
CCSc1cnnc2ccccc12	/	-2	-1.8	8.5	0.65	/	5%
CCCCCCOC(=O)c1ccc(NC(=O)c2cc(OC)c(OC)c(OC)c2Br)cc1	-0.8	4	2.5	5.9	0.81	1.2	-2%
O=C(CN1C(=O)CSc2ncccc21)Nc1cccc(Cl)c1	-0.2	-23	0.7	2.9	0.74	3.9	/
O=c1nc2s/c(=C\c3ccco3)c(=O)n2nc1Cc1ccc(F)cc1	-0.5	2	-0.9	/	/	-0.6	-1%&24%
COCCCNC(=S)N/N=C/c1ccc(N(C)C)cc1	-0.2	3	2.5	/	/	-2.5	-4%
CCN1C(=O)c2cccc3c(S(=O)(=O)N(C(=O)c4cccnc4)c4ccc(OC)cc4)ccc1c23	-0.1	36	-1.4	-77	0.72	-1.0	-12%
CC(C)(C)c1ccc(/C=C/C(=O)O)s1	0.0	-2	0.3	4.5	/	-0.7	5%
CCN(CC)C(=O)C(C)OC(=O)COc1ccc(Cl)cc1C (stereo unspecified)	-0.1	-4	0.1	0.7	0.64	-2.0	26%
O=C(CN1CCCC1)N1c2ccccc2Sc2ccc(Cl)cc21	1.1	-8	-1.0	6.8	0.67	0.0	/
CCCOc1ccccc1N/C(N)=N/c1nc(C)cc(C)n1	-0.1	-4	5.3	1.4	0.68	3.1	?
O=[N+]([O-])c1ccc(-c2nnc(CNC3CCCC3)o2)cc1	0.7	-3	-0.1	3.6	0.67	-0.6	13%
Cc1ccc(-c2cc(NC(=O)CSc3n[nH]c(N)n3)n(-c3ccccc3)n2)cc1	0.0	-6	-1.4	-0.3	0.75	1.6	29%
O=C(CCSc1ccccc1)NC(=O)COC(=O)C1CCCCC1	0.4	-2	-0.7	3.0	0.66	-9.6	/
CC1CN(S(=O)(=O)c2ccc(C(=O)Nc3nncs3)cc2)CC(C)O1 (stereo unspecified)	-0.4	2	1.3	0.6	0.71	0.3	/
COc1ccc(NC(=O)COC(=O)CCCC2=NS(=O)(=O)c3ccccc3N2)cc1	0.7	1	-1.0	0.5	0.69	4.2	/
CCn1cc(CNC(=O)c2cccc([N+](=O)[O-])c2)cn1	-0.1	-6	-0.7	2.8	0.69	-3.8	21%
CCc1cc(C(=O)OC)c(NC(=O)c2cc(Br)cs2)s1	0.0	-6	1.9	-33	0.75	2.3	-10%
CCOC(=O)C1=C(N)OC(CCl)=C(C#N)C1c1ccsc1 (stereo unspecified)	-1.0	8	-1.0	-1.4	0.61	/	/
COc1ccc(S(=O)(=O)Nc2c(C)nn(C)c2C)cc1Br	0.5	-11	-1.9	0.3	0.68	2.7	/
Cc1cc(C)[n+](-c2ccc(C(C)C)cc2)c2[nH]c(=O)[nH]c(=O)c12	0.6	-3	-2.3	i	0.71	-1.5	0%
COCCn1nnnc1C(c1ccc(Cl)cc1)N1CCN(C(=O)c2ccco2)CC1 (stereo unspecified)	0.9	-10	-0.5	3.9	0.66	-5.9	/
CCN(CC)S(=O)(=O)c1ccc(OC)c(NC(=O)c2cccc([N+](=O)[O-])c2C)c1	0.9	-4	9.1	-1.9	0.74	-1.3	/
Cc1ccc(Nc2nc(=O)c3cc([N+](=O)[O-])ccc3s2)cc1	0.7	15	3.3	5.2	0.68	-7.8	-2%
